Sa RN4220 lethal: S. aureus RN4220 growth inhibition; actives 0.33% (n = 330,000); inhibition, % (no concentration beside the values); OD600, 16 h;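 active = z-score of -3 or lower and OD600 up to 0.18 on both plates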;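 also: plate controls were untreated cells for no effect and reference antibiotic for full effect; stock transfer was 100 nL into about 80 µL; one replicate is shown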
Autofluor counter: flagged as autofluorescent in microsphere protease counterscreen; AID 624483; fluorescence intensity (concentration not given with the values); actives 3.1% (n = 360,000); compound autofluorescence counterscreen, microsphere flow cytometry; active compounds read high;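 active = at least 3 SD above the mean of all compounds, about 16000 in these data; inconclusive = too few beads counted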;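 also: 100 nL of 1 mM stock went into each well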
PrP 5UTR inh: suppresses PrP 5' UTR mRNA reporter expression; cell-based PrP 5' UTR mRNA reporter, plate reader; inhibition, % (no concentration beside the values); actives 0.35% (n = 340,000); AID 488862;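 active = every replicate at 50% or more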;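 also: 0 = median of the neutral control wells; tested in H4 reporter cells; numbers are from one replicate; inactives centre near -14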
BJeLR viability: kills HRASV12-expressing BJeLR cells | actives 0.17% (n = 300,000) | BJeLR (HRASV12) viability, CellTiter-Glo ATP luminescence, 48 h; reference of the scale not given here | inhibition, % (no concentration beside the values);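 active = replicate mean above 50%; inconclusive = above 50% but judged a plate artefact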;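 also: 50 nL library stock added to about 25 µL; numbers are from one replicate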
Sa ugtP lethal: growth inhibition of S. aureus ugtP deletion strain | S. aureus RN4220 ugtP deletion, OD600 growth, 16 h; some inactives read as strong as hits | growth inhibition, % (concentration not given with the values) | actives 0.54% (n = 330,000) | AID 1259309;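 active = z-score under -3 and OD600 up to 0.15 on both plates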;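 also: plate controls were untreated wells for no effect and antibiotic for full effect; wells of about 80 µL received 100 nL stock; the first replicate is given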
Mtb hypoxia inh: inhibitors of hypoxia-regulated fluorescent reporter in Mycobacterium tuberculosis; M. tuberculosis hypoxia-regulated fluorescent reporter, fluorescence; fluorescence inhibition, % (concentration not given with the values); actives 0.1% (n = 300,000);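 active = 35 to 45% if threefold the growth effect, above 45% if 1.5-fold the growth effect; inactive = the rest, general growth blockers included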;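 also: wells of about 50 µL received 100 nL stock; 0% = vehicle wells and 100% = reference inhibitor wells; whole bacteria with a GFP reporter of the hypoxia response; strong numbers were not always called active; many hits fall short of the cut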
Mtb hypoxia inh growth: second read-out of Mtb hypoxia inh, no call of its own (marks repeat the call); growth inhibition, %; measured here: M. tuberculosis growth (absorbance);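 0% = vehicle and 100% = reference antibiotic; read after six days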
Active calls of the source: *; ? = inconclusive; nt = no result given.

SMILES	Sa RN4220 lethal	Autofluor counter	PrP 5UTR inh	BJeLR viability	Sa ugtP lethal	Mtb hypoxia inh	Mtb hypoxia inh growth
O=C(O)CN1C(=O)/C(=C\c2cccc(OCc3ccc(F)cc3)c2)SC1=S	2.9	3274	-26	-3	1	5	7
O=C(C(NS(=O)(=O)c1cccc2nsnc12)c1ccccc1)N1CCN(c2ccccn2)CC1 (configuration not stated)	4.1	3552	-4	-10	2	2	11
CCn1c(C)cc(/C=C2\NC(=O)N(Cc3ccccc3)C2=O)c1C	1.9	4332	5	-4	-7	1	10
COC(=O)[C@]1(C)N[C@H](CN(C)S(=O)(=O)c2ccc(C(F)(F)F)cc2)[C@@H]2C(=O)N(C)C(=O)[C@@H]21	1.3	3750	23	nt	-1	-10	-1
CCOC(=O)Cc1ccc(NC(=O)c2cccc([N+](=O)[O-])c2)cc1	3.5	5025	-25	-1	-2	5	14
COc1ccc(C(=O)c2cnc3cc4c(cc3c2C)OCO4)cc1	4.9	3996	-9	2	-5	nt	nt
COC(=O)C(NC(C)=O)(Nc1ccc(C)cn1)C(F)(F)F (configuration not stated)	2.1	nt	-8	5	0	-11	-1
CC1(C)CC2CC(C)(CN2S(=O)(=O)c2ccc(N)cc2)C1 (configuration not stated)	8.8	9888	-27	3	-7	4	5
CCN(CC)CC#CCC(OC)(c1ccccc1)c1ccccc1	-1.3	3098	-21	-1	1	10	4
CCOc1ccc(NC(=S)N(CCc2ccncc2)C(C)C)cc1	5.4	?	nt	6	1	7	7
COc1ccc(NC(=O)Nc2c(C)n(C)n(-c3ccccc3)c2=O)cc1OC	-1.0	5880	-37	6	4	1	-2
O=C(Nc1ccc(Cl)cc1)OCCn1nnnc1C(c1ccccc1)N1CCOCC1 (configuration not stated)	-0.5	2428	4	-1	-14	5	8
COC(=O)C(=C/C=C/c1ccco1)C(=O)OC	7.9	4106	6	0	5	8	16
COc1ccc(CCNS(=O)(=O)c2ccc(OC)c(OC)c2)cc1OC	5.8	3465	-1	-12	6	3	0
O=C(Cc1ccc(Cl)c(Cl)c1)NC1CCCCCC1	-6.9	3938	-22	6	6	18	17
Nc1nc(CN2CCN(c3ccccc3F)CC2)nc(Nc2ccccc2)n1	-8.7	16781*	1	-3	-24	-22	11
CN(Cc1nccn1C)C(=O)CC1C(=O)NCCN1Cc1ccc(F)cc1Cl (configuration not stated)	1.7	4481	-25	-1	10	6	17
O=C(NCC1CCCN1S(=O)(=O)c1ccccc1)c1cccc(Cl)c1 (configuration not stated)	-2.9	13352	-19	7	-3	-6	5
Cc1cccc(OCC(=O)N2CCN(C(=O)COc3ccc(Cl)cc3)CC2)c1	1.4	6578	-11	-3	5	-11	-2
CCCc1nc2nc(C)c(NS(=O)(=O)c3ccc(CC(C)C)cc3)c(=O)n2[nH]1	1.0	3053	5	-8	7	2	3
CCOc1cc(C(=O)Nc2nnc(S(=O)(=O)N3CCOCC3)s2)cc(OCC)c1OCC	1.9	5131	-10	2	4	10	8
[N-]=[N+]=CC(=O)C(Cc1ccccc1)N1C(=O)c2ccccc2C1=O (configuration not stated)	1.0	5021	-7	-1	2	nt	nt
C/C(=N\OCC(=O)Nc1ccc(OC(F)(F)F)cc1)c1ccc2c(c1)OCCO2	nt	1877	-7	4	nt	nt	nt
COc1ccc(CCNC(=O)Oc2ccccc2)cc1OC	2.5	3715	-2	7	-1	11	18
O=C(/C=C/c1cccs1)N1CCN(c2ccccc2)CC1	12	4121	-8	9	6	17	21
COc1cc(NC(=O)C2CCCN(S(=O)(=O)c3ccc4c(c3)oc(=O)n4C)C2)cc(OC)c1 (configuration not stated)	10	6034	-37	6	18	1	8
CC1=C(C(=O)OC(C)C)C(c2ccsc2)NC(=O)N1C (configuration not stated)	5.5	8332	-4	-6	-3	2	6
CCOc1ccccc1NS(=O)(=O)c1ccc(-n2cccn2)cc1	2.7	5533	-21	-6	-2	2	2
CCOc1cccc(-n2nnnc2-c2ccc(OC)cc2)c1	2.5	4724	-12	29	-2	nt	nt
Cc1nc(Oc2ccccc2)c2ccsc2n1	12	4502	-6	-3	5	0	15
Cc1cc(C)nc(NC(=O)Cc2ccc([N+](=O)[O-])cc2)c1	2.6	2468	-32	-9	4	9	2
CCOC(=O)C(C)Sc1ncnc2nc[nH]c12 (configuration not stated)	2.3	24038*	-15	8	9	2	0
O=C(C[C@H]1C[C@H](C(=O)N2CCOCC2)[C@@]2(CCC3CCCC3)c3[nH]c4cc(-c5ccco5)ccc4c3CCN2C1=O)NCc1cccc(C(F)(F)F)c1	-4.6	3544	-3	nt	-24	3	15
C(=N/Nc1nc(-c2ccccc2)cc(-c2ccccc2)n1)/c1cccnc1	nt	2056	-32	-27	nt	nt	nt
CCCCCCNC(=O)c1ncn[nH]1	2.6	4496	-1	-5	-1	11	-5
CC1(C)Cc2cccc(Oc3cc(NN4CCCCC4)c([N+](=O)[O-])cc3[N+](=O)[O-])c2O1	-0.1	2850	3	4	6	15	5
Cc1ccc(NC(=O)COc2ccc(-c3nnco3)cc2)cc1S(=O)(=O)N1CCOCC1	4.2	4480	1	5	4	3	2
CC(Sc1nc2scc(-c3ccccc3)c2c(=O)[nH]1)C(=O)NC(N)=O (configuration not stated)	6.0	3695	-28	6	15	4	8
CC(C)CC(NC(=O)c1ccc(Cl)cc1)C(=O)OCC(=O)c1ccc2c(c1)NC(=O)CO2 (configuration not stated)	-1.6	4109	2	17	-5	nt	nt
CC/C(O)=C1\C(=O)CC(C)(C)CC1=Nc1ccccc1C	3.7	2514	-21	1	14	0	2

Complete entries, quoted from the list. Screens in order: Sa RN4220 lethal | Autofluor counter | PrP 5UTR inh | BJeLR viability | Sa ugtP lethal | Mtb hypoxia inh | Mtb hypoxia inh growth
Shown for O=C(Cc1ccc(Cl)c(Cl)c1)NC1CCCCCC1 → -6.9 | 3938 | -22 | 6 | 6 | 18 | 17
Shown for COc1ccc(NC(=O)Nc2c(C)n(C)n(-c3ccccc3)c2=O)cc1OC → -1.0 | 5880 | -37 | 6 | 4 | 1 | -2
Shown for Nc1nc(CN2CCN(c3ccccc3F)CC2)nc(Nc2ccccc2)n1 → -8.7 | 16781* | 1 | -3 | -24 | -22 | 11
Shown for CCOC(=O)Cc1ccc(NC(=O)c2cccc([N+](=O)[O-])c2)cc1 → 3.5 | 5025 | -25 | -1 | -2 | 5 | 14

Next section:
SMILES	Sa RN4220 lethal	Autofluor counter	PrP 5UTR inh	BJeLR viability	Sa ugtP lethal	Mtb hypoxia inh	Mtb hypoxia inh growth
COc1ccc(/C=C/C(=O)NC(=S)NNC(=O)c2c(-c3ccccc3)noc2C)cc1	nt	8635	-19	0	nt	nt	nt
CCC1CCC(C(=O)NC(C(=O)NCCN2CCOCC2)C(C)C)CC1 (configuration not stated)	1.1	4147	-6	-7	5	0	-1
CN1CCc2c(sc(/N=C/c3cccs3)c2C(N)=O)C1	nt	7758	-33	12	nt	nt	nt
O=C(COC(=O)/C=C/c1cn(-c2ccccc2)nc1-c1cccnc1)Nc1ccc(Cl)cc1Cl	nt	8234	-6	-5	nt	nt	nt
C=CCn1c(SCC(=O)NCc2ccc3c(c2)OCO3)nnc1-c1cccnc1	-1.4	4336	-26	-5	-1	-2	-2
CC1(C)CC(=O)c2cnc3nc4ccccc4n3c2C1	5.1	5111	-7	7	10	4	1
CC1=C(C(N)=O)C(c2cccs2)n2nc(-c3cccc(C)c3)nc2N1 (configuration not stated)	5.1	3342	-15	-12	-2	2	4
COc1ccc(CNC(=O)Cn2nc(C)n3cccc3c2=O)cc1	1.4	5462	-4	0	8	-6	-2
Nc1ncc(Br)cc1N=Cc1ccccc1	nt	7595	-101	-7	nt	nt	nt
O=C(NC1CCCc2ccccc21)c1cc(F)cc(F)c1 (configuration not stated)	-0.5	3853	-15	-5	-1	nt	nt
COC(=O)c1ccc(NC(=S)NCc2ccco2)cc1	5.5	3523	-11	2	-1	3	9
Cc1cccc(N=Cc2c(C)[nH]n(-c3ccccc3)c2=O)n1	1.4	nt	nt	nt	2	5	11
CCCn1c(N)c(C(=O)CSc2nc3ncc(Cl)cc3[nH]2)c(=O)[nH]c1=O	1.1	2887	8	nt	4	1	-5
Cn1c(SC/C=C/c2ccccc2)nnc1-c1cccs1	7.9	?	-20	6	-5	3	12
CC(C)Nc1nc(NC(C)C)nc(OCCOC(=O)c2ccccc2)n1	6.8	7963	-4	2	4	5	10
Cc1ccccc1S(=O)(=O)Nc1ncc(C(F)(F)F)cc1Cl	12	4810	-16	0	-2	-4	-1
N#CCCN(C(=O)CSc1n[nH]c(=O)[nH]c1=O)c1ccccc1	3.3	3377	-29	nt	6	16	11
CCOC(=O)/C=C1\CN(Cc2ccc(OC)cc2)S(=O)(=O)c2ccccc21	nt	3664	-22	3	nt	nt	nt
COc1ccccc1C(=O)Nc1ccnn1C1CCN(C(=O)C(C)(C)C)CC1	-2.4	5825	-5	-7	-2	2	12
CNC(=O)COc1coc(CN2CCN(c3cccc(Cl)c3)CC2)cc1=O	3.1	5478	-10	11	7	8	3
CC(=NNc1ccc2nncn2n1)c1ccc(Cl)s1	0.7	nt	nt	nt	-1	1	7
CCOc1ccc(N2CC(C(=O)OCC(=O)c3ccc(OC)cc3)CC2=O)cc1 (configuration not stated)	2.0	5339	-7	6	16	6	9
O=C(CSc1nnc(CNc2ccccc2)o1)N1CCc2ccccc21	4.0	10111	-7	3	2	5	4
C(=N\Nc1ncnc2ccccc12)/c1ccccc1	nt	4528	-58	-2	nt	nt	nt
COc1ccc(/C=N/c2nc3ccccc3n2CCN2CCCCC2)cc1OC	nt	7928	-21	10	nt	nt	nt
CCOC(=O)CC(=O)NC(C)(C)CCCCC(C)(C)NC(=O)CC(=O)OCC	nt	3506	-18	3	nt	nt	nt
Cc1cc(OCC(=O)NCC(O)c2ccccc2)c2c(C)cc(=O)oc2c1 (configuration not stated)	3.3	4710	1	-3	5	-14	4
Cc1n[nH]c(=O)nc1N/N=C/c1ccco1	nt	2803	-21	-14	nt	nt	nt
CC(=O)O/N=C(/c1nonc1N)N1CCN(c2ccc([N+](=O)[O-])cc2Cl)CC1	nt	2579	5	-2	nt	nt	nt
COc1ccc2oc(C(=O)OCC(=O)N3CCCC(C)C3)c(C)c2c1 (configuration not stated)	-2.0	4605	-3	2	-7	-2	2
COc1ccc(-c2nc3c(s2)CN(S(C)(=O)=O)CC3)cc1OC	2.3	3997	-32	-6	6	8	3
Cc1nnc(-c2ccccc2)c(=O)n1/N=C/c1c(O)ccc2ccccc12	nt	2609	12	-3	nt	nt	nt
O=C(CCNS(=O)(=O)c1ccccc1Cl)N1CCN(c2ccccn2)CC1	1.6	3767	-7	nt	4	4	8
CCn1c(CSc2nnc(-c3ccncc3)n2CCOC)nc2cc(C(=O)O)ccc21	-0.1	4069	-44	-3	-10	-1	1
Cn1c(=O)oc2cc(S(=O)(=O)N3CCC(C(=O)NCc4ccc(F)cc4)CC3)ccc21	2.3	5284	-24	4	10	5	-1
C=CCNC(=S)NNC(=O)COc1ccc(Br)cc1	3.1	2005	-13	11	-7	7	1
Cc1cc(C)c2c(=O)cc(C(=O)NCc3ccccc3)oc2c1	3.6	3510	-17	1	8	13	4

Seven of the compounds above, with two lines to a compound.
Screens in order: Sa RN4220 lethal	Autofluor counter	PrP 5UTR inh	BJeLR viability	Sa ugtP lethal	Mtb hypoxia inh	Mtb hypoxia inh growth
O=C(CSc1nnc(CNc2ccccc2)o1)N1CCc2ccccc21
 : 4.0	10111	-7	3	2	5	4
C(=N\Nc1ncnc2ccccc12)/c1ccccc1
 : nt	4528	-58	-2	nt	nt	nt
COc1ccc(/C=N/c2nc3ccccc3n2CCN2CCCCC2)cc1OC
 : nt	7928	-21	10	nt	nt	nt
CCOC(=O)CC(=O)NC(C)(C)CCCCC(C)(C)NC(=O)CC(=O)OCC
 : nt	3506	-18	3	nt	nt	nt
Cc1cc(OCC(=O)NCC(O)c2ccccc2)c2c(C)cc(=O)oc2c1 (configuration not stated)
 : 3.3	4710	1	-3	5	-14	4
Cc1n[nH]c(=O)nc1N/N=C/c1ccco1
 : nt	2803	-21	-14	nt	nt	nt
CC(=O)O/N=C(/c1nonc1N)N1CCN(c2ccc([N+](=O)[O-])cc2Cl)CC1
 : nt	2579	5	-2	nt	nt	nt

Screening results deposited in PubChem BioAssay by several laboratories.
